From PubChem BioAssay
Ecoli rRNA inh: selective bacterial rRNA inhibition in E. coli; AID 720706; E. coli WT GFP vs humanized-ribosome RFP mutants, fluorescence, 24 h; hits give low values; DMSO median 0, no signal -100; GFP signal change (wild-type ribosome), % (test concentration not listed); 1.6% of 350,000 active;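 active = significant combined selectivity score with lowered wild-type GFP, culture density cut under 30%, mutant RFP and density less affected; inactive = any of these conditions unmet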; note: one replicate is shown; some compounds called inactive have numbers as strong as hits
Beta cell apopt: blocks beta cell apoptosis | INS-1E cytokine-induced death, ATP luminescence, 48 h; percent of positive-control rescue, neutral wells zero | protection from apoptosis, % (no concentration beside the values) | 0.8% of 300,000 active | AID 435005;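 active = all replicates at 75% or more, or half of them and the mean; inconclusive = half reach 75% but not the mean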;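 note: 0% = cytokine-treated negative control wells and 100% = positive control rescue; higher means more ATP so stronger rescue from cytokine killing; wells of about 40 µL received 100 nL stock; the first replicate is given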
LANA-H2A inh: blocks KSHV LANA binding to histone H2A/H2B; cell-free LANA-H2A/H2B peptide, fluorescence polarization; AID 2629; inhibition, % (test concentration not listed); 0.6% of 320,000 active; Q9QR71; in the data active = inhibition mostly above about 10%, no sharp cut-off; inactive = mostly below about 6.7%;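 note: stock transfer was 7.5 nL into about 10 µL; 0% = median of vehicle wells and 100% = median of positive control wells; one replicate is shown; the record names a cut of 25% in any replicate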
Target sequence (Q9QR71 whole entry, looked up): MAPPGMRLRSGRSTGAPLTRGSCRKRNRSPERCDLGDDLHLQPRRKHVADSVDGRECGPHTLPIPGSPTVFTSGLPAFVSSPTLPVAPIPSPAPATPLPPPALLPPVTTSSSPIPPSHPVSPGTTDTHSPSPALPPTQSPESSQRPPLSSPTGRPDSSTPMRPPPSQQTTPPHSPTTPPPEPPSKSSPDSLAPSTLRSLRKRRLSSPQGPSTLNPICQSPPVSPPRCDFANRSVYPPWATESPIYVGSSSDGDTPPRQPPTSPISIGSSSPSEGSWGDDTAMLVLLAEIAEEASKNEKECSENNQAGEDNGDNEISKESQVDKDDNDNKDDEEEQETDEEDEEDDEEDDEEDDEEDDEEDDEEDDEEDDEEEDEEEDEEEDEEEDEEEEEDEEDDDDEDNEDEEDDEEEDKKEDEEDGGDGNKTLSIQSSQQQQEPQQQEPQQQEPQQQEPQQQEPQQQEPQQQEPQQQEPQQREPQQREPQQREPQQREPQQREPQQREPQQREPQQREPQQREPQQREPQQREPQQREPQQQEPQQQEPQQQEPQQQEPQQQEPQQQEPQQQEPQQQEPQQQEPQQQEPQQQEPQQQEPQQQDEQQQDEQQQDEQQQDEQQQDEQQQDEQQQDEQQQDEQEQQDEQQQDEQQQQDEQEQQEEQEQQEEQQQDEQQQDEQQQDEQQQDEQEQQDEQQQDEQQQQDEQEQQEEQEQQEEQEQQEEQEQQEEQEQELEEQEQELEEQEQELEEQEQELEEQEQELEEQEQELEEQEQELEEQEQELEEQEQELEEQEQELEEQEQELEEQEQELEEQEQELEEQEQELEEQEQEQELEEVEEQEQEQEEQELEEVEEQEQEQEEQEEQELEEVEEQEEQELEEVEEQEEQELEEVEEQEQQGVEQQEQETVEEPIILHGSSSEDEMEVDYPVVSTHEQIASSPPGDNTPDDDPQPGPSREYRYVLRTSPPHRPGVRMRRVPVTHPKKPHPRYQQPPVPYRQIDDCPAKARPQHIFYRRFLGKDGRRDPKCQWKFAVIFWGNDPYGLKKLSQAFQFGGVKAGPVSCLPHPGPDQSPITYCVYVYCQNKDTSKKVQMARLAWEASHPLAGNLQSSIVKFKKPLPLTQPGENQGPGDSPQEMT
Calb FLC: affects C. albicans growth with fluconazole; C. albicans CaCi-2 (fluconazole-resistant clinical isolate) + fluconazole, Alamar Blue growth, 48 h; growth inhibition, % (test concentration not listed); 0.57% of 300,000 active;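 active = most replicates above 75%; inconclusive = exactly half above 75%; inactive = most below 75%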;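 note: all wells also contain fluconazole at 8 µg/ml as a sub-toxic cotreatment; 0% = median of DMSO wells and 100% = median of geldanamycin control wells; wells of about 8 µL received 7.5 nL stock; the first replicate is given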
Beta2AR agonist: agonists of human beta-2 adrenergic receptor inducing internalization. P07550. Am2.2-beta2AR cells, FAP receptor internalization, flow cytometry; reference of the scale not given here. response, % (test concentration not listed). 0.43% of 340,000 active;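 active = response above a set limit, near 3 SD of response in nonfluorescent compounds, cut at about 42% in these data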;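 note: stock transfer was 100 nL into about 11 µL; a reference agonist was the positive control; negative values mostly stem from fluorescent compounds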
Bfl-1 A1 inh: inhibitors of the anti-apoptotic protein A1, read as caspase activation. caspase activation, % (concentration not given with the values). 0.066% of 330,000 active. MEF A1-2A-BIM cells, Caspase-Glo 3/7 luminescence, 3 h; percent of clofoctol response, vehicle zero;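 active = over half of replicate activation scores above 10%, or exactly half above 10 with the replicate mean above 10; inconclusive = replicate mean below 10 yet half the replicates above 10; inactive = over half of replicates below 10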;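 note: wells of about 30 µL received 50 nL stock; many hits fall short of the cut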
ALR inh: blocks human ALR sulfhydryl oxidase activity | P55789 | purified ALR, DTT oxidation, H2O2 HRP-luminol luminescence | inhibition, % (test concentration not listed) | 3.8% of 290,000 active | AID 485317;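 active = mean and each replicate at 75% or more; inconclusive = only one of the two met; inactive = neither met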;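 note: stock transfer was 7.5 nL into about 7.5 µL; 0% = neutral wells and 100% = wells with inactivated enzyme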
T cruzi inh: T. cruzi replication inhibition; 1.4% of 300,000 active; inhibition, % (concentration not given with the values); T. cruzi beta-gal in NIH3T3, luminescence, 90 h;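 active = mean inhibition across valid replicates above about 55%, limit read from the data; inconclusive = mean below that limit but half or more replicates reach it; inactive = mean below it, under half of replicates reach it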;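 note: signal also drops with host cell toxicity which is not excluded here; 0% = plate median of DMSO wells and 100% = zero luminescence signal; higher percent means less beta-gal luminescence so fewer parasites; stock transfer was 50 nL into about 50 µL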
Ecoli rRNA inh OD600: further read-out of Ecoli rRNA inh, marked with its call; OD600 change, %; measured here: OD600 growth;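 optical density of the mix in the first replicate; 0 = DMSO median and -100 = no signal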
Ecoli rRNA inh RFP: also measured in Ecoli rRNA inh; calls as there; RFP signal change, %; measured here: RFP humanized mutant strains;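 first replicate; 0 = DMSO median and -100 = no signal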
* = called active by the depositor; ? = inconclusive; / = no result given. Not all compounds are listed. The share of hits here may be higher or lower than overall.

SMILES	Ecoli rRNA inh	Ecoli rRNA inh OD600	Ecoli rRNA inh RFP	Beta cell apopt	LANA-H2A inh	Calb FLC	Beta2AR agonist	Bfl-1 A1 inh	ALR inh	T cruzi inh
Oc1cccc(C(Nc2nccs2)c2ccc3cccnc3c2O)c1 (stereo not drawn)	-17.1	-25.4	5.0	77.2*	9.4	102.8*	2.6	0.0	/	91.6*
CCOC(=O)c1[nH]c2ccc(Br)cc2c1NC(=O)CCN1CCC(C)CC1	/	/	/	-1.2	-1.1	-32.2	1.0	1.8	-8.5	-20.5
O=C(NCCc1ccc(Cl)cc1)c1cnc2n(c1=O)CCS2	7.6	10.2	-0.3	-8.8	2.3	-2.5	-20.2	-0.1	-5.0	4.2
CCCC1=C(C(=O)OCC)C(c2sccc2C)n2ncnc2N1 (stereo not drawn)	2.8	3.7	0.6	/	1.2	13.9	7.9	0.6	/	5.8
O=C(Nc1ccc(S(=O)(=O)NCc2ccco2)cc1)c1ccc(F)cc1	-3.7	7.7	-1.9	-1.6	-1.6	2.3	2.8	-0.2	/	0.6
CC1CC(=O)NN=C1c1ccc(NCCO)c([N+](=O)[O-])c1 (stereo not drawn)	/	/	/	-0.7	0.2	1.1	-8.5	2.0	-37.4	-0.9
CC1(C)NC(=O)N(CC(=O)OCc2cc(=O)n3cc(Br)ccc3n2)C1=O	7.1	7.1	2.3	-2.2	2.5	-0.8	-7.3	-0.3	24.0	-15.0
O=S(=O)(c1cccc(NC(=S)N2CCN(c3cccc(Cl)c3)CC2)c1)C(F)F	-37.2	-34.1	-1.3	-1.6	-5.0	-6.5	2.0	-0.1	/	18.9
O=C(c1cccc(S(=O)(=O)N2CCCCC2)c1)N(CCc1ccccc1)Cc1ccccc1	-3.8	-1.2	6.0	4.3	5.6	-0.3	3.3	-0.3	-1.0	41.2
O=C(COC(=O)C1CC(O)CN1S(=O)(=O)c1ccc(Cl)cc1)c1ccccc1Cl (stereo not drawn)	/	/	/	-2.7	-6.1	-9.9	-8.2	0.0	-11.1	-8.9
C/C(=N\N(c1ccccc1)c1ccccc1)c1ccco1	0.5	4.4	-0.1	-1.3	-3.1	7.1	-5.2	-0.5	56.4	8.6
CCCCC(=O)Nc1ccccc1N1CCN(c2ccc(F)cc2)CC1	4.0	8.5	0.7	-5.3	1.3	18.2	-2.1	0.5	25.8	7.2
CCOC(=O)C(=O)Nc1nccs1	2.9	1.3	-0.5	2.4	-29.8	-4.5	-5.3	-0.8	/	-13.6
O=C(Nc1nc(SCc2ccc(F)cc2)ns1)c1ccco1	-56.4	-79.5	-21.8	-2.2	-4.1	?	-4.5	-0.6	32.5	-8.4
CN(C)C(CNC(=O)c1ccc2ccccc2n1)c1ccccc1 (stereo not drawn)	10.2	18.0	3.8	-7.4	0.3	-6.1	-0.6	-0.9	-2.0	-13.9
CC(=O)N1CCN(S(=O)(=O)c2cccc(C(=O)OCc3cccc(F)c3)c2)CC1	-2.2	-6.9	-3.7	-1.6	4.4	/	-0.5	0.5	-0.6	/
CCOc1ccccc1N(CC(=O)NC1CCCC1)C(=O)CCC(=O)Nc1cc(C)on1	/	/	/	-5.1	2.5	2.4	-5.4	1.6	-3.5	-11.3
CCOC(=O)c1c(NC(=O)Nc2ccc(Cl)cc2)sc(C)c1C	/	/	/	-12.6	-0.2	0.5	-2.4	-1.2	-2.6	-0.7
O=[N+]([O-])c1ccn(-c2nc(-c3cccs3)cc(C(F)(F)F)n2)n1	0.2	1.9	-3.4	8.3	-0.3	-1.7	-12.3	-0.5	-8.4	49.5
O=[N+]([O-])c1ccc(Nc2nc(N3CCOCC3)nc(N3CCOCC3)n2)cc1	/	/	/	/	-1.1	4.1	4.9	0.4	/	-1.1
O=C(NCc1ccco1)c1ccc(CS(=O)(=O)c2cccc(C(F)(F)F)c2)o1	/	/	/	0.2	-2.1	6.9	-6.6	-1.5	-5.5	-7.1
COc1ccc(C(=O)Nn2c(SCc3ccc([N+](=O)[O-])cc3)nc3ccccc3c2=O)cc1	/	/	/	1.7	6.2	-4.8	3.7	0.6	2.3	10.3
CCN(CC)C(=O)CC(c1ccc(N(C)C)cc1)c1c(OC)cc(OC)c2c(-c3ccccc3)cc(=O)oc12 (stereo not drawn)	8.5	-0.5	-0.3	1.7	-4.2	9.1	-10.2	0.0	-24.0	13.0
CCC(C(=O)NC1CCCC1)N(C(=O)Cn1nnc(-c2ccc(C)o2)n1)C(C)(C)C (stereo not drawn)	/	/	/	-1.7	0.8	-3.7	0.2	-0.6	-17.2	-4.8
COC(=O)Nc1ccc(C)c(NC(=O)OC)c1	13.6	2.6	3.2	-4.0	1.0	-10.2	-4.0	0.7	/	-6.6
CC1CN(c2nc3ccccc3nc2C(C#N)C(=O)NCc2ccc3c(c2)OCO3)CC(C)O1 (stereo not drawn)	/	/	/	-5.5	3.6	?	2.4	0.0	1.3	38.2
O=C(NC12CC3CC(CC(C3)C1)C2)N1CCN(c2ccccn2)CC1	-18.8	-15.3	0.3	3.5	0.9	-47.8	-8.2	0.3	4.9	19.8
COc1ccccc1NC(=O)CSc1nnc(CC(=O)Nc2ccccc2C)n1C	4.2	1.7	-3.9	-6.0	-2.7	4.3	12.6	0.6	-2.2	4.4
Cc1cccc(NC(=O)CCN2C(=O)C3C4C=CC(C4)C3C2=O)n1 (stereo not drawn)	/	/	/	-5.9	0.7	-1.7	-0.7	-0.9	/	-3.3
CCCOC(=O)c1ccc(OCC(O)Cn2c(C)nc3ccccc32)cc1 (stereo not drawn)	-2.1	-9.5	-3.1	/	/	-4.0	1.6	/	/	-22.0
CCc1c(C)nc2c(OC)cccc2c1Cl	-37.3	-46.0	-7.3	0.3	-2.4	19.3	14.7	0.4	-4.5	-1.0
CC(NC(=O)c1ccc(Br)cc1)C(=O)NC1=NCCS1 (stereo not drawn)	3.8	4.2	1.2	-8.3	5.0	1.6	14.0	0.9	-20.8	-11.8
COc1ccc(CN2CCNC(=O)C2CC(=O)N(C)Cc2nccs2)cc1OC (stereo not drawn)	1.8	11.9	0.8	-0.8	-3.2	-0.1	-10.5	0.5	-15.3	10.2
CCOC(=O)Cn1c(C)c(Br)c(=O)c2cccc(C)c21	/	/	/	1.6	-5.9	-1.5	-1.1	1.8	-5.2	-2.9
COc1ccc(CCNc2ccc(C(=O)O)cc2[N+](=O)[O-])cc1OC	-13.1	-10.2	-0.2	1.5	-0.2	-1.6	0.7	-0.8	-18.6	4.0
C/C(=N\NC(=O)c1cccc(Br)c1)c1ccc(Br)cc1	/	/	/	-13.4	3.1	?	1.3	-0.1	-19.8	-2.9
O=S(=O)(NCc1ccccc1)NCc1ccccc1F	-10.8	-4.8	-2.4	1.4	-0.6	-38.6	-0.8	-0.3	-5.7	-10.5
Cc1cc(Cl)c2c(c1)[C@]1(C(=O)N2)[C@@H]2C(=O)N(Cc3ccccc3)C(=O)[C@@H]2[C@@H]2CCCN21	/	/	/	2.5	-0.6	12.6	10.3	0.7	/	-22.5
O=C(NCCc1ccncc1)Nc1cccc(Cl)c1	/	/	/	-6.0	-6.2	-8.0	1.9	-1.0	-1.1	7.5
CC(=O)Nc1ccc(NC(=O)c2ccc(Cl)nc2)cc1	11.0	6.5	-0.3	-3.6	-1.6	7.3	-4.9	-0.6	-2.8	-0.1
Cc1cc(Cl)cc(Br)c1OCCCCn1cncn1	/	/	/	-0.7	2.9	-0.7	8.6	0.3	0.8	35.0
NNC(=O)[C@H](Cc1ccccc1)NC(=O)Nc1ccc2c(c1)OCCO2	-2.2	-13.8	-2.4	-4.9	-0.4	5.0	1.1	-0.1	23.3	-5.5
COc1cc(S(=O)(=O)N2CCOCC2)ccc1NC(=O)c1cc2c(s1)CCC2	/	/	/	-8.6	1.0	3.8	-0.3	-0.6	-8.6	6.6
CCCCC(=O)N(c1ccc(OC)cc1)C1C=CS(=O)(=O)C1 (stereo not drawn)	6.1	-9.7	-0.8	-8.9	2.7	-6.8	-7.5	-0.1	2.8	-5.9
CCOc1ccc(C(=O)NC(=S)Nc2ccc(N3CCCCC3)cc2)cc1[N+](=O)[O-]	-9.0	9.7	10.4	-0.3	3.1	3.9	-3.2	-0.7	/	5.0

By substructure: the entries above with a CF3 group (2)
SMILES	Ecoli rRNA inh	Ecoli rRNA inh OD600	Ecoli rRNA inh RFP	Beta cell apopt	LANA-H2A inh	Calb FLC	Beta2AR agonist	Bfl-1 A1 inh	ALR inh	T cruzi inh
O=[N+]([O-])c1ccn(-c2nc(-c3cccs3)cc(C(F)(F)F)n2)n1	0.2	1.9	-3.4	8.3	-0.3	-1.7	-12.3	-0.5	-8.4	49.5
O=C(NCc1ccco1)c1ccc(CS(=O)(=O)c2cccc(C(F)(F)F)c2)o1	/	/	/	0.2	-2.1	6.9	-6.6	-1.5	-5.5	-7.1

Carrying on.
SMILES	Ecoli rRNA inh	Ecoli rRNA inh OD600	Ecoli rRNA inh RFP	Beta cell apopt	LANA-H2A inh	Calb FLC	Beta2AR agonist	Bfl-1 A1 inh	ALR inh	T cruzi inh
N#CC(=C1CCCC1)c1nc(-c2ccccc2O)cs1	/	/	/	6.9	-1.9	1.9	-4.3	0.8	-16.7	13.0
CC1CCCC(NC(=O)CSc2nccn2C)C1C (stereo not drawn)	/	/	/	-3.0	0.7	0.9	-1.5	-1.0	-12.7	-5.7
CCOC(=O)CSc1nnc(CNC(=O)c2cccs2)n1CCc1ccccc1	/	/	/	-4.1	2.7	-6.3	4.7	-0.9	-8.6	4.5
Cc1[nH]c(=O)[nH]c(=O)c1S(=O)(=O)N1CCOCC1	/	/	/	-9.5	-1.2	4.9	-3.9	-0.2	/	-9.3
Cc1cc(=O)oc2cc(OCC(=O)N3CCN(C(=O)C4COc5ccccc5O4)CC3)ccc12 (stereo not drawn)	-7.4	-9.7	-1.1	/	0.9	-12.7	-0.4	-0.3	-4.7	1.4
COc1ccccc1CNC(=O)C(=O)Nc1ccc(C(=O)N2CCC(C)CC2)cc1	5.1	6.6	0.9	-0.5	-0.6	2.2	-5.1	0.2	-1.5	14.4
Oc1ccccc1C(=S)N1CCN(c2cccc(Cl)c2)CC1	-62.1	-79.0	-21.7	1.7	0.6	-7.4	-1.1	0.1	-1.6	-14.1
COc1ccc(/C=C/C(=O)c2cc(F)ccc2OC(=O)c2ccccc2OC)cc1OC	-7.2	-3.2	7.2	/	/	24.6	24.8	/	/	45.6
O=C(Cn1c(=O)[nH]c2ccccc2c1=O)N1CCN(Cc2ccc3c(c2)OCO3)CC1	-0.1	-3.5	-0.2	9.0	-0.2	0.6	-16.7	0.0	-18.3	0.1
COc1ccc(/C=N/NC(=O)CCn2nnc3ccccc32)cc1	-17.0	6.8	4.1	0.9	-2.9	-3.0	-5.5	-1.3	/	-7.9
COc1ccccc1NC(=O)CSc1nc(C)c2c(c1C#N)CCCC2	9.0	10.3	2.9	1.5	-2.4	-1.2	2.1	1.1	-22.5	-18.5
